# Screening data as filed in PubChem BioAssay.
# 2A StopGo – High Throughput Screening for Foot and Mouth Disease Virus Antivirals; AID 1159524, 2015; 1.2% of 410,000 active; Potency, µM (top dose mostly 57.9 µM), for the others: at the top dose signal change, negative = less light; human cells with a luciferase reporter of 2A StopGo recoding; control for the full effect not named in the record; active = well fitted falling curve with a large enough effect; inconclusive = small, poorly fitted or top-dose-only effect; inactive = no such curve, though single readings can be large or run the other way; tested in HEK293T cells; also: % is scaled to controls: 0 for no effect and ±100 for the full control effect; nearly all actives have a fitted effect of over 45% in size; luciferase light after 4 h
# RE007 growth inh – qHTS Assay for Inhibitors of the HIV-1 protein Vpr; S. pombe RE007 Vpr strain, BacTiter-Glo ATP luminescence, 24 h; control for the full effect not named in the record; Potency, µM (highest dose often 92.2 µM), inactives show at the top dose activity change, negative = less growth; 0.21% of 360,000 active; AID 651644, 2012; active = well fitted falling curve with a large enough effect; inconclusive = small, poorly fitted or top-dose-only effect; inactive = no such curve, though single readings can be large or run the other way;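 also: % is scaled to controls: 0 for no effect and ±100 for the full control effect; nearly all actives have a fitted effect of over 50% in size; the assay follows cell death caused by Vpr and the record does not say whether a fall means rescue or toxicity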
#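 Fission yeast RE007 carrying one integrated HIV-1 vpr copy, seeded at OD 0.01 in PMG+AL medium with 23 nL pinned compound. Grown 24 h at 30 degrees; viability read by BacTiter-Glo luminescence after 5 min.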
# SARS PLpro yeast – qHTS of Yeast-based Assay for SARS-CoV PLP. Potency, µM (series often up to 32.9 µM), inactives show at the top dose activity, positive = growth rescue. AID 485353, 2010. 0.19% of 330,000 active. S. cerevisiae expressing SARS-CoV PLpro, growth rescue; control for the full effect not named in the record; active means well fitted rising curve with a large enough effect; inconclusive means small, poorly fitted or top-dose-only effect; inactive means no such curve, though single readings can be large or run the other way; also: 0% is about no effect; nearly all actives have a fitted effect of over 55% in size; growth read by luminescence after 48 h
# NS1 inh – qHTS Assay for Inhibitors of Influenza NS1 Protein Function | S. cerevisiae slowed by influenza A NS1, growth recovery by OD600 | Potency, µM (top dose mostly 46.1 µM), inactives show top-dose activity, positive = more growth | 0.4% of 270,000 active | AID 2326, 2010; active means well fitted rising curve with a large enough effect; inconclusive means small, poorly fitted or top-dose-only effect; inactive means no such curve, though single readings can be large or run the other way; also: nearly all actives have a fitted effect of over 50% in size
#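 In this qHTS, NS1 from influenza A is expressed in budding yeast, where it slows growth. Cells are switched from glucose to 2% galactose medium (pH 6.0, -URA), treated with compound, and growth recovery is read at OD600.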
# Cruzain inh noDet – qHTS Assay for Promiscuous and Specific Inhibitors of Cruzain (without detergent). Potency, µM, inactives show max response, negative = inhibition, most hits filed as inhibitors. AID 1476, 2009. 2.3% of 200,000 active. purified cruzain, Z-FR-AMC fluorescence, no detergent;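 also: plate controls were enzyme without inhibitor for no effect and buffer without enzyme for full effect; nearly all actives have a fitted effect of over 40% in size; top concentration of the series not given in the record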
# Target sequence (P25779 123-467 limits assumed): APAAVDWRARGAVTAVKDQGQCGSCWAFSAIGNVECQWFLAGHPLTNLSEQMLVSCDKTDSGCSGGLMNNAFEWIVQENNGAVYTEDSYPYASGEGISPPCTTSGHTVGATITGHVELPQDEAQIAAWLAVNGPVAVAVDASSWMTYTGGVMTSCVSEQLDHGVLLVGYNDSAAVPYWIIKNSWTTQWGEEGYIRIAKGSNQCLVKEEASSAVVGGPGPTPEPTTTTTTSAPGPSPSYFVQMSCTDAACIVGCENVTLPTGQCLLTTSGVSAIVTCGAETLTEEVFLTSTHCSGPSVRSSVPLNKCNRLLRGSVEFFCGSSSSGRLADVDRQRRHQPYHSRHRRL
#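 Purified cruzain at 1.5 nM, pre-incubated 15 min with compound at room temperature in 100 mM sodium acetate pH 5.5, 5 mM DTT, 0.00005% Triton X-100. Reaction started with 2 uM Z-FR-AMC; AMC fluorescence increase over 60 s gives rate.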
# MARV entry inh – qHTS for inhibitors of binding or entry into cells for Marburg Virus; Marburg virus pseudotyped entry inhibition, cell reporter; control for the full effect not named in the record; about a third of the inactives were read at about 46 µM; Potency, µM (series often up to 37.8 µM), for the others: at the highest dose activity change, negative = inhibition, usual class: inhibitors; 1.8% of 300,000 active; active = well fitted inhibition curve with a large enough effect; inconclusive = small, poorly fitted or top-dose-only effect, or effect the other way; inactive = flat fitted curve, though single readings scatter; tested in HEK293 cells; about a fifth of its hits are not listed in these tables; also: % is scaled to controls: 0 for no effect and ±100 for the full control effect; luciferase read-out
# Cruzain inh Det – qHTS Assay for Promiscuous and Specific Inhibitors of Cruzain (with detergent). Cruzipain (Trypanosoma cruzi), P25779. purified cruzain, Z-FR-AMC fluorescence, 0.01% Triton. Potency, µM, for the others: max response, negative = inhibition, actives largely listed as inhibitors. 0.43% of 200,000 active. AID 1478, 2009;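 also: plate controls were neutral wells for no effect and buffer without enzyme for full effect; nearly all actives have a fitted effect of over 40% in size; top concentration of the series not given in the record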
#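 Sodium acetate buffer (100 mM, pH 5.5) containing 5 mM DTT and 0.01% Triton X-100 hosted 1.5 nM cruzain and test compound for 15 min at room temperature. Cleavage of 2 uM Z-FR-AMC was then tracked by fluorescence.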
# LASV entry inh – qHTS for Inhibitors of binding or entry into cells for Lassa Virus | 1.2% of 300,000 active | Lassa virus pseudotype entry inhibition, cell reporter; control for the full effect not named in the record | Potency, µM (series often up to 37.9 µM), for inactives: at the top dose activity change, negative = inhibition, actives largely listed as inhibitors | AID 540256, 2011; active means well fitted inhibition curve with a large enough effect; inconclusive means small, poorly fitted or top-dose-only effect, or effect the other way; inactive means flat fitted curve, though single readings scatter; tested in HEK293 cells; also: % is scaled to controls: 0 for no effect and ±100 for the full control effect; nearly all actives have a fitted effect of over 50% in size; luciferase read-out
# * hit, by the source's call; ? = inconclusive; nt = no result given; & = joins results of further samples; [ ] = another dose, or the depositor's remark. Unless noted, calls follow the shape of the dose curve; as a rule, active = well fitted curve in the direction sought with a large enough effect; inconclusive = small, poorly fitted or top-dose-only effect, or another doubt; inactive = no such curve, though single readings can be large; an effect the other way counts as inactive or inconclusive. Potency is read from the fitted curve at half-maximal effect.
nr	SMILES	2A StopGo	RE007 growth inh	SARS PLpro yeast	NS1 inh	Cruzain inh noDet	MARV entry inh	Cruzain inh Det	LASV entry inh
1	O=C(NCc1ccco1)c1ccc2c(c1)N(Cc1ccc(Cl)cc1)C(=O)c1ccccc1S2(=O)=O	18%	nt	nt	nt	25µM*	?	-4.0%	-17%[46.1 µM]
2	O=C(Nc1ccon1)c1cccc(S(=O)(=O)N2CCCCC2)c1	9%	24%	0%	-3%	nt	nt	nt	nt
3	COc1ccc(OC)c(C(c2c(C)[nH][nH]c2=O)c2c(C)[nH][nH]c2=O)c1	-18%	-4%	-1%	1%	nt	3%[46.1 µM]	nt	?
4	C[C@@H]1CN(C(=O)c2nc3ccc(Cl)cn3c2CN(C)CCc2cnn(C)c2)C[C@H](C)O1	-3%	2%	1%	-3%	nt	nt	nt	nt
5	C=CCNc1nnc(Sc2ncccc2[N+](=O)[O-])s1	4%	1%	2%	5%	nt	-16%[46.1 µM]	nt	-1%
6	COc1ccc2nc(C)cc(SCC(=O)N3CCCCC3)c2c1	-18%	-11%	0%	-3%	nt	nt	nt	nt
7	CCCNC(=O)c1ccc(C2SCC(=O)N2CCc2ccccc2)cc1 (centres undefined)	-27%	5%	3%	-17%	-29%	-19%	?	10µM*
8	CCCCNc1ccc2nsnc2c1[N+](=O)[O-]	-1%	-16%	-1%	-2%	0%	7%	-4.2%	-10%
9	COc1ccc(-n2ncc3c2CC(C)(C)CC3NC(=O)c2cn[nH]c2)cc1 (centres undefined)	-23%	1%	1%	7%	nt	0%	nt	1%
10	CC1(C)CC(=O)C2=C(C1)Nc1ccccc1NC2c1cccnc1 (centres undefined)	-13%	3%	-2%	2%	-7%	-23%	-5.0%	21%
11	COc1ccc(CCN=C(N)NS(=O)(=O)c2ccc(F)cc2)cc1OC	0%	-12%	-5%	6%	nt	?	nt	-1%
12	O=C(OC1CCCCC1)c1ccc2c(c1)C1C=CCC1C(C(=O)O)N2 (centres undefined)	nt	nt	4%	17%	-5%	-3%	?	nt
13	Fc1ccc(NC2=NCCCCC2)cc1	-6%	-6%	-1%	nt	nt	-5%[46.1 µM]	nt	nt
14	CC(CC(=O)Nc1ccc2c(c1)OCO2)c1ccccc1 (centres undefined)	23%	-24%	-3%	-19%	nt	?	nt	-4%[46.1 µM]
15	COc1cccc(N(CC(=O)NCCSCc2ccc(C)cc2)S(C)(=O)=O)c1	-14%	1%	-4%	-8%	nt	nt	nt	nt
16	CCCc1ccc(NC(=O)C2CCCN(c3cnccn3)C2)cc1 (centres undefined)	18%&14%	11%	-10%	-37%	?	?	-6.8%	5%[46.1 µM]

# Three structures already listed, ordered by molar mass, descending.
nr	SMILES	2A StopGo	RE007 growth inh	SARS PLpro yeast	NS1 inh	Cruzain inh noDet	MARV entry inh	Cruzain inh Det	LASV entry inh
1	O=C(NCc1ccco1)c1ccc2c(c1)N(Cc1ccc(Cl)cc1)C(=O)c1ccccc1S2(=O)=O	18%	nt	nt	nt	25µM*	?	-4.0%	-17%[46.1 µM]
2	O=C(Nc1ccon1)c1cccc(S(=O)(=O)N2CCCCC2)c1	9%	24%	0%	-3%	nt	nt	nt	nt
5	C=CCNc1nnc(Sc2ncccc2[N+](=O)[O-])s1	4%	1%	2%	5%	nt	-16%[46.1 µM]	nt	-1%

# Other structures follow:
nr	SMILES	2A StopGo	RE007 growth inh	SARS PLpro yeast	NS1 inh	Cruzain inh noDet	MARV entry inh	Cruzain inh Det	LASV entry inh
17	CCCn1c(NCc2cccc(OC)c2O)nc2ccccc21	11%	0%	-4%	-9%	-12%	?	-3.1%	-21%
18	O=C(CSc1nnc(COc2ccc(Cl)cc2)o1)N1CCCCC1	-20%	30%	0%	-1%	nt	-3%[46.1 µM]	nt	nt
19	O=c1nc2ccc(Cl)cn2c2ccc(S(=O)(=O)N3CCCCC3)cc12	20%	5%	4%	11%	nt	-18%[46.1 µM]	nt	1%
20	Cc1ccc(S(=O)(=O)N2CCN(C(C)C)CC2)cc1	-2%	6%	0%	5%	nt	?	nt	?
21	O=C(CCNS(=O)(=O)c1ccc(Cl)cc1)N1CCN(c2ccccn2)CC1	16%	-4%	1%	6%	nt	3%[46.1 µM]	nt	17%[46.1 µM]
22	COc1ccc(C(CNC(=O)c2cc(SC)ccc2Cl)N(C)C)cc1 (centres undefined)	-2%	-2%	0%	0%	nt	nt	nt	nt
23	Cc1c(NC(=O)c2cnn3c2NC(c2ccco2)CC3C(F)(F)F)c(=O)n(-c2ccccc2)n1C (centres undefined)	-23%	-17%	3%	14%	1%	?	-2.1%	-1%
24	CCN(Cc1ccccc1)C(=O)Cn1ncc2c(=O)oc3ccc(C)cc3c21	-7%	nt	nt	nt	10%	7%[46.1 µM]	-1.7%	1%[46.1 µM]
25	CC(NC(=O)c1cc2c(=O)n(C)c3ccccc3c2n1C)c1ccc2c(c1)OCCO2 (centres undefined)	?	2%	nt	12%	nt	-8%	nt	nt
26	CCCCOC(=O)Nc1ccc(C(C)C)cc1	42%[activator]	-23%	0%	-3%	-11%	-24%	-8.8%	?
27	O=C(NCCc1ccccc1)c1coc(=O)c(Br)c1	?	-10%	-3%	-4%	nt	?	nt	-21%[46.1 µM]
28	CCNC(=S)N(Cc1ccc(OC)cc1)C1CC(=O)N(c2ccc(OCC)cc2)C1=O (centres undefined)	-5%	8%	2%	18%	?	-59%	2.6%	?
29	Cc1cc(C)cc(OCC(=O)Nc2nc(-c3ccccn3)cs2)c1	-23%	-13%	0%	nt	nt	-22%[46.1 µM]	nt	-28%
30	O=Cc1ccccc1OCc1nnsc1Cl	-18%	-19%	-2%	nt	nt	7%[46.1 µM]	nt	-5%[46.1 µM]
31	Fc1ccc(Oc2cc(N3CCOCC3)nc(-c3ccccc3)n2)c(F)c1	-10%	17%	-5%	-3%	-4%	-29%	-10%	-16%
32	COc1ccc(NC(C)=O)cc1CNC(=O)COc1c(C)c(C)cc(C)c1C	-24%	7%	9%	1%	?	?	-4.3%	-19%
33	COc1cccc(N(CC(=O)NC2CCCCCC2)S(=O)(=O)c2ccccc2)c1	-1%	-8%	-3%	-6%	nt	15%	nt	-16%
34	NC(=O)c1coc(-c2ccccc2)n1	15%	-13%	-1%	nt	nt	0%	nt	-9%
35	COCCOC(=O)C1=C(C)OC(N)=C(C#N)C1c1ccco1 (centres undefined)	-9%	-9%	2%	11%	-5%	-2%	0.7%	-2%
36	Cc1sc2ncn(CC(=O)NCc3ccco3)c(=O)c2c1-c1ccccc1	-8%	-3%	1%	1%	nt	?	nt	-24%
37	O=C(N/N=C/c1cccnc1)c1cc(-c2ccccc2OCc2ccccc2)n[nH]1	0%	1%	-2%	10%	nt	?	nt	?
38	CCCCNC(=O)NC(C(N)=O)P(=O)(OCC)OCC (centres undefined)	-15%	-14%	-1%	2%	nt	nt	nt	nt
39	Cc1ccc(CN(Cc2cccn2-c2nnc(N3CCCC3=O)s2)C(=O)Nc2ccc(F)cc2)cc1	23%	nt	nt	nt	4%	-12%[46.1 µM]	-3.2%	nt
40	Cn1cc(Cl)c(/C=C(\C#N)S(=O)(=O)c2ccccc2)n1	-15%	11%	1%	-3%	nt	nt	nt	nt

# Entries of single compounds from above. Order of values: 2A StopGo, RE007 growth inh, SARS PLpro yeast, NS1 inh, Cruzain inh noDet, MARV entry inh, Cruzain inh Det, LASV entry inh
# O=C(N/N=C/c1cccnc1)c1cc(-c2ccccc2OCc2ccccc2)n[nH]1 as listed: 0%, 1%, -2%, 10%, nt, ?, nt, ?
# Cc1sc2ncn(CC(=O)NCc3ccco3)c(=O)c2c1-c1ccccc1 as listed: -8%, -3%, 1%, 1%, nt, ?, nt, -24%
# Cc1ccc(CN(Cc2cccn2-c2nnc(N3CCCC3=O)s2)C(=O)Nc2ccc(F)cc2)cc1 as listed: 23%, nt, nt, nt, 4%, -12%[46.1 µM], -3.2%, nt
# COCCOC(=O)C1=C(C)OC(N)=C(C#N)C1c1ccco1 (centres undefined) as listed: -9%, -9%, 2%, 11%, -5%, -2%, 0.7%, -2%
# NC(=O)c1coc(-c2ccccc2)n1 as listed: 15%, -13%, -1%, nt, nt, 0%, nt, -9%

# Next part.
nr	SMILES	2A StopGo	RE007 growth inh	SARS PLpro yeast	NS1 inh	Cruzain inh noDet	MARV entry inh	Cruzain inh Det	LASV entry inh
41	CN1CCN(c2ccccc2NC(=O)Cn2ncc3c([nH]c4ccccc43)c2=O)CC1	0%	-7%	-6%	5%	nt	nt	nt	nt
42	CCCc1[nH]nc2c1C(CCc1ccccc1)C(C#N)=C(N)O2 (centres undefined)	-14%	13%	-3%	-2%	-6%	?	-12%	-27%
43	O=C(NCCCN1CCN(c2ccc(F)cc2)CC1)c1cnn(-c2ccc(F)cc2)c1-n1cccc1	?	nt	nt	nt	-18%	nt	-4.5%	?
44	COc1ccc(/C(O)=C2/C(=O)C(=O)N(CCCC(=O)O)C2c2ccc(OC)c(OC)c2)cc1 (centres undefined)	6%	-5%	0%	-9%	-9%	-2%	0.7%	?
45	Cc1cc(OCC(=O)NCCCN2CCOCC2)c2c(C)cc(=O)oc2c1	-9%	-9%	-1%	-4%	nt	nt	nt	nt
46	Cc1ccc(CNC(=O)C2CCC(=O)N2CCc2ccccc2)cc1 (centres undefined)	2%	-4%	7%	1%	-9%	7%	3.1%	2%
47	Cc1cccc(Nc2nc(N)nc(CN3CCN(Cc4ccc5c(c4)OCO5)CC3)n2)c1	?	3%	-3%	-14%	0%	-10%	2.0%	-9%
48	COc1cc(/C=C/C(=O)Nc2ccncc2)cc(OC)c1OC	-22%	4%	5%	5%	-3%	?	-5.9%	3%
49	CCCCNC(=O)c1cc2cccc([N+](=O)[O-])c2[nH]1	-9%	0%	-4%	-4%	nt	8%[46.1 µM]	nt	?
50	Cc1cc(C)n(C(=O)CSc2ccc(Cl)cc2)n1	-6%	-8%[3.69 µM]	0%	5%	-6%	-5%	4.3%	4%
